PV pol inh: poliovirus RNA polymerase inhibition. % elongation, % (compound at 16.7 µg/mL). P03300. AID 588519. poliovirus polymerase elongation, fluorescence polarization; hits give low values. 150,000 compounds, 0.66% hits; in the data active = % elongation below about 90%; also: some results filed as inactive read as strong as hits
Target sequence (P03300 1749-2209 limits assumed): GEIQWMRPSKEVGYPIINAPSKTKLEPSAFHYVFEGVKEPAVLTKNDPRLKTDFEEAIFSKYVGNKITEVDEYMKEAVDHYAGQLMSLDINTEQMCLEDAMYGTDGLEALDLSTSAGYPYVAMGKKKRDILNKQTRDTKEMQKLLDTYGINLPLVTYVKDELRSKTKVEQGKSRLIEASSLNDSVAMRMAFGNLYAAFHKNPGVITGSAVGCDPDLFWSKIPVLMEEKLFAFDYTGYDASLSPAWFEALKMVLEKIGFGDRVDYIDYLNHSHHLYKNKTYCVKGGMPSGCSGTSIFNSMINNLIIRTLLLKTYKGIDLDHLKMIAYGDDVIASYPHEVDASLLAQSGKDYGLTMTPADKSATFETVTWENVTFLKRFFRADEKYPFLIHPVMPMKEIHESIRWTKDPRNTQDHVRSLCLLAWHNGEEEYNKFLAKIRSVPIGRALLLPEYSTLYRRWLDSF
PV pol inh intensity: further read-out of PV pol inh, marked with its call; % elongation; measured here: total intensity read-out; formula for this scale not given here;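 total fluorescence in place of polarization; lower means less elongation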
Numbers without * were called inactive. The list is partial. The share of hits here may be higher or lower than overall.

SMILES | PV pol inh | PV pol inh intensity
CCOc1cc(-c2nnc(SCC(=O)NCc3ccc(C)cc3)nc2-c2ccc(OC)c(OCC)c2)ccc1OC | 105 | 107
CSc1ccc(CNC(=O)c2cc3c(=O)n(Cc4ccco4)ccc3nc2C)cc1 | 110 | 100
COc1ccc(-c2nc3c4ccccc4n(CC(=O)N4CCN(c5ccccc5OC)CC4)c(=O)n3n2)cc1 | 104 | 111
Cc1c(C(=O)Nc2cccc(Cl)c2)oc2ccc(S(=O)(=O)N(C)C3CCCCC3)cc12 | 111 | 108
CCc1ccc(NC(=O)CCc2c(C)n(C)c3cc(-c4ccccc4C)nn3c2=O)cc1 | 113 | 112
Cc1ccccc1NC(=O)c1c(C)oc2ccc(O)c(CN3CCCC3)c12 | 109 | 107
CCCCc1ccc(NC(=O)CSc2nc3ccccc3nc2N2CCCCC2)cc1 | 106 | 108
COC(=O)CSc1nc2sc3c(c2c(=O)n1Cc1ccccc1)CCC(C(C)(C)C)C3 (stereo not given) | 109 | 111
Cc1ccc(NC(=O)Cn2c(=O)n(CCCCCC(=O)NCc3ccc(F)cc3)c(=O)c3sccc32)cc1C | 106 | 107
O=C(NCCO)C(=O)NCC(c1ccc2c(c1)OCO2)N1CCOCC1 (stereo not given) | 105 | 113
Cc1cccc(CN2C(=O)c3ccccc3Sc3ccc(C(=O)NCc4ccco4)cc32)c1 | 111 | 114
COc1ccccc1-n1c(-c2ccc(C)cc2)cn2c3c(=O)n(C)c(=O)n(C)c3nc12 | 102 | 103

Structures above containing a thiophene ring, fused or not:
SMILES | PV pol inh | PV pol inh intensity
COC(=O)CSc1nc2sc3c(c2c(=O)n1Cc1ccccc1)CCC(C(C)(C)C)C3 (stereo not given) | 109 | 111
Cc1ccc(NC(=O)Cn2c(=O)n(CCCCCC(=O)NCc3ccc(F)cc3)c(=O)c3sccc32)cc1C | 106 | 107

Further records:
SMILES | PV pol inh | PV pol inh intensity
Clc1ccc(-c2cn3ncsc3n2)cc1 | 103 | 101
CCOC(=O)c1c(NC(=O)c2cc(OC)c(OC)c(OC)c2)sc2c1CCCC2 | 105 | 108
CCCCCOc1ccc(NC(=O)Cc2csc(C)n2)cc1 | 109 | 110
CC1CCN(c2nn3c(=O)c(C(=O)NCCc4ccccc4)cnc3s2)CC1 | 101 | 109
COc1ccc(CNC(=O)Cc2ccc(NC(=O)N3CCSc4ncccc43)cc2)cc1OC | 103 | 106
CC(C)OCCCN1C(=O)c2[nH]nc(-c3ccccc3O)c2C1c1cccc(OCc2ccccc2)c1 (stereo not given) | 108 | 105
CCCc1nn2c(=O)cc(COC(=O)c3ccc(NC(=O)COc4ccc(F)cc4)cc3)nc2s1 | 102 | 111
COc1ccc(CCNC(=O)c2c(C)oc3ncn(CC(C)C)c(=O)c23)cc1OC | 106 | 110
Cc1cc(=O)[nH]c2nnc(SCc3cccc(C(F)(F)F)c3)n12 | 109 | 94
CCOc1ccc2c(c1)c(=O)c(S(=O)(=O)c1ccc(CC)cc1)cn2CC | 104 | 105
COc1ccc(C(=O)Nc2cccc(C(=O)OCc3cc(=O)n4nc(C5CC5)sc4n3)c2)cc1 | 104 | 99
COc1ccc(CCNC(=O)CSCc2nc(-c3cccc(C)c3)oc2C)cc1OC | 107 | 109
Cc1cc(NC(=O)c2cc(-c3ccc(Br)cc3)on2)nn1Cc1ccc(Cl)cc1 | 99 | 99
CCc1ccc(C2CC(=O)NC(NC(=O)c3ccc(C(C)(C)C)cc3)=N2)cc1 (stereo not given) | 105 | 106
CCOC(=O)c1cccc(NC(=O)N2CCC(CN3CCCCCC3)CC2)c1 | 119 | 114
CC(C)C(=O)OC1=CN(Cc2ccccc2)S(=O)(=O)c2ccccc21 | 108 | 104
Cc1ccccc1NC(=O)c1cc2c([nH]c1=O)CC(C)(C)CC2=O | 108 | 110
Cc1nc(C)c(-c2ccc(SCC(=O)Nc3cccc(C)c3C)nn2)s1 | 106 | 115
O=C(NCCc1csc2nc(-c3ccccc3F)nn12)c1ccco1 | 106 | 113
Cc1cccc(NC(=O)C(NS(=O)(=O)c2cccc3nsnc23)c2ccccc2)c1C (stereo not given) | 108 | 111
COc1ccc(/C=C/C(=O)Nc2ccc3nc4c(c(Nc5ccccc5OC)c3c2)CCCC4)cc1 | 106 | 108
O=C(NCc1ccccc1Cl)C1CCC(CNS(=O)(=O)c2ccc(Br)s2)CC1 (stereo not given) | 114 | 110
Cc1ccc(NC(=O)CN2C(=O)CCc3cc(S(=O)(=O)N4CCCCC4)ccc32)cc1N(C)C | 107 | 106
O=C(NCc1ccc2c(c1)CCN2C(=O)c1ccc(Cl)cc1)c1cccc(F)c1 | 106 | 107
Cc1ccc(OCc2cc(=O)n3c4c(sc3n2)CCCC4)c(C)c1 | 110 | 114
COc1ccc(NC(=O)CN2C(=O)C(c3ccccc3)=NC23CCC(C)CC3)cc1Cl (stereo not given) | 105 | 112
COc1ccc(Cl)cc1NC(=O)C1CCCN(S(=O)(=O)c2ccc3c(c2)CCCC(=O)N3)C1 (stereo not given) | 101 | 94
Cc1ccccc1Cc1c(C)nc2nc(SCC(=O)N(C)c3ccccc3)nn2c1C | 113 | 111
O=C(CCn1c(=O)c2ccccc2n(Cc2ccc(F)cc2Cl)c1=O)NCc1ccc2c(c1)OCO2 | 106 | 114
CCCN(C(=O)c1cc2c(s1)-c1ccccc1OC2)c1ccccc1F | 104 | 107
Cc1cc(NC(=O)CCCn2c(C)c3cnn(-c4ccccc4)c(=O)c3c2C)ccc1Br | 100 | 104
CC(C)c1ccc(-c2noc(SCC(=O)N(C)c3ccc(F)cc3)n2)cc1 | 97 | 93
COc1ccc(OC)c(NC(=O)N2CC3CCCN3c3ccccc32)c1 (stereo not given) | 107 | 114
O=C(Cn1cnc2onc(-c3ccc(F)cc3)c2c1=O)N1CCN(c2ccc(F)cc2)CC1 | 103 | 104
CC(C)c1nc2ccc(C(=O)Nc3ccccc3F)cc2o1 | 107 | 111
COc1ccc(S(=O)(=O)N2CCC(Oc3ccc(-n4cnnn4)cc3)CC2)cc1 | 104 | 105

Arranged by SMILES length (highest first): part of the list above
SMILES | PV pol inh | PV pol inh intensity
COc1ccc(Cl)cc1NC(=O)C1CCCN(S(=O)(=O)c2ccc3c(c2)CCCC(=O)N3)C1 (stereo not given) | 101 | 94
COc1ccc(/C=C/C(=O)Nc2ccc3nc4c(c(Nc5ccccc5OC)c3c2)CCCC4)cc1 | 106 | 108
O=C(Cn1cnc2onc(-c3ccc(F)cc3)c2c1=O)N1CCN(c2ccc(F)cc2)CC1 | 103 | 104
Cc1cc(NC(=O)CCCn2c(C)c3cnn(-c4ccccc4)c(=O)c3c2C)ccc1Br | 100 | 104
COc1ccc(NC(=O)CN2C(=O)C(c3ccccc3)=NC23CCC(C)CC3)cc1Cl (stereo not given) | 105 | 112
Cc1cccc(NC(=O)C(NS(=O)(=O)c2cccc3nsnc23)c2ccccc2)c1C (stereo not given) | 108 | 111
O=C(NCc1ccc2c(c1)CCN2C(=O)c1ccc(Cl)cc1)c1cccc(F)c1 | 106 | 107
O=C(NCc1ccccc1Cl)C1CCC(CNS(=O)(=O)c2ccc(Br)s2)CC1 (stereo not given) | 114 | 110
Cc1ccccc1Cc1c(C)nc2nc(SCC(=O)N(C)c3ccccc3)nn2c1C | 113 | 111
CC(C)c1ccc(-c2noc(SCC(=O)N(C)c3ccc(F)cc3)n2)cc1 | 97 | 93
Cc1nc(C)c(-c2ccc(SCC(=O)Nc3cccc(C)c3C)nn2)s1 | 106 | 115
CCCN(C(=O)c1cc2c(s1)-c1ccccc1OC2)c1ccccc1F | 104 | 107
Cc1ccc(OCc2cc(=O)n3c4c(sc3n2)CCCC4)c(C)c1 | 110 | 114
O=C(NCCc1csc2nc(-c3ccccc3F)nn12)c1ccco1 | 106 | 113
CC(C)c1nc2ccc(C(=O)Nc3ccccc3F)cc2o1 | 107 | 111

New compounds follow
SMILES | PV pol inh | PV pol inh intensity
Cc1nc2sc(C)c(C)n2c(=O)c1S(=O)(=O)N1CCN(c2ccccc2F)CC1 | 104 | 97
Cc1ccc2occ(CC(=O)Nc3ccc(S(=O)(=O)N4CCC(C)CC4)cc3)c2c1 | 117 | 119
Cc1ccc(-n2nnc(C(=O)Nc3cc(F)ccc3F)c2C)cc1F | 111 | 99
O=C(Cn1c(=O)nc(-c2ccccc2F)c2cc(Cl)ccc21)NCCCc1ccccc1 | 108 | 114
O=C(NCc1ccccc1Cl)C(=O)NCC(c1ccc2c(c1)OCO2)N1CCOCC1 (stereo not given) | 111 | 113
CCOc1ccc(-c2cc(C(=O)NCCc3ccc(Cl)cc3)c3ccccc3n2)cc1 | 111 | 109
COc1ccc(N(CC(=O)NCCc2ccccc2)S(=O)(=O)c2ccccc2)c(OC)c1 | 107 | 110
COC(=O)c1ccccc1NC(=O)c1cn2c3c(ccc(Cl)c3c1=O)OC(C)C2 (stereo not given) | 100 | 106
CCNC(=O)c1cnc2sc(N3CCCCCC3)nn2c1=O | 110 | 101
NC(=O)c1c(NC(=O)c2nc(SCc3ccccc3F)ncc2Cl)sc2c1CCCC2 | 112 | 115
CC(=O)c1cccc(NC(=O)c2c(N3CCCC3=O)c3cc(F)ccc3n2C)c1 | 106 | 104
CCOc1ccc(NS(=O)(=O)c2ccc3[nH]cc(C(=O)N4CCCC4)c(=O)c3c2)cc1 | 107 | 105
CCOc1ccccc1CNC(=O)Cn1c(=O)c2cccn2c2ccc(F)cc21 | 112 | 116
CC1CCc2c(sc(NC(=O)c3ccccc3)c2C(=O)Nc2ccccc2)C1 (stereo not given) | 105 | 104
Cc1cccc(NC(=O)CSc2nnc(CNC(=O)c3cccc(C)c3)n2-c2ccccc2)c1 | 104 | 106
Cc1ccc(C)c(NC(=O)c2ccc(=O)n(Cc3ccc(F)cc3)c2)c1 | 103 | 106
Cc1ccc(CCNC(=O)c2cc3n(n2)CCCN(Cc2ccc(C)cc2)C3=O)cc1 | 103 | 100
CCc1ccc(-c2cn3c(n2)sc2cc(C(=O)NCC(C)c4ccccc4)ccc23)cc1 (stereo not given) | 109 | 110
CSc1cccc(NC(=O)C2CCN(c3ncnc4c3nc3n4CCCCC3)CC2)c1 | 106 | 114
CCOCCCNC(=O)c1cn(CC)c2ccc(S(=O)(=O)N3CCc4ccccc4C3)cc2c1=O | 106 | 109
COC(=O)c1ccc2c(=O)n(CCCCCC(=O)NCc3ccc(OC)cc3)c(=O)[nH]c2c1 | 96 | 97
COc1ccc(NC(=O)c2oc3ccc(S(=O)(=O)N4CCCCC4)cc3c2C)cc1Cl | 107 | 103
CCOc1ccccc1-c1noc(CSc2nnc(-c3ccccc3)n2-c2ccc(OC)cc2)n1 | 108 | 114
Cc1ccc(N2CCN(c3nc4ccc(C(=O)c5ccccc5)cc4n4cnnc34)CC2)c(C)c1 | 103 | 102
CC1CCN(S(=O)(=O)c2ccc3c(c2)oc(=O)n3CC(=O)O)CC1 | 101 | 110
CCOC(=O)c1cc2c(=O)n3ccccc3nc2n(CC(C)C)c1=NC(=O)COc1ccc(Cl)cc1 | 102 | 100
CC(=O)c1ccc(NC(=O)CN2C(=O)c3cccnc3Sc3ccccc32)cc1 | 111 | 108
COc1ccc(NC(=O)Cn2c(=O)n(-c3ccc(OC)cc3)c(=O)c3sc4ccccc4c32)cc1 | 108 | 106
COc1ccc(C(=O)NCC(c2cccs2)S(=O)(=O)c2cccs2)cc1 (stereo not given) | 105 | 113
CN(Cc1ccccc1)S(=O)(=O)c1nnc(NC(=O)c2cccc(Cl)c2)s1 | 110 | 113
O=C(Nc1ccc(Cl)cc1)c1ccc2c(c1)N(Cc1ccccc1)C(=O)c1ccccc1S2(=O)=O | 104 | 102
Cc1cc(C)c(NC(=O)Cn2c(=O)n(CCC(=O)N3CCc4ccccc4C3)c(=O)c3ccccc32)c(C)c1 | 104 | 106
CC(Oc1ccccc1F)C(=O)NCC1(N2CCOCC2)CCCCC1 (stereo not given) | 105 | 111
COc1cc(-c2ccno2)ccc1S(=O)(=O)N1CCN(c2ccc(C(C)=O)cc2)CC1 | 113 | 112
Cc1nn(S(=O)(=O)c2ccc(C(C)(C)C)cc2)c(C)c1S(=O)(=O)N1CCCCCC1 | 109 | 111
CCCCC(Sc1nc2cc3c(cc2c(=O)n1CCCC(=O)NCc1ccc(OC)cc1)OCO3)C(=O)OCC (stereo not given) | 109 | 110
CCCc1cc(=O)n2[nH]c(NC(=O)c3ccc(C(C)(C)C)cc3)nc2n1 | 105 | 101
Cc1cccc(N2CCN(C(=O)c3ccc4c(c3)N(Cc3ccccc3)C(=O)c3ccccc3S4(=O)=O)CC2C)c1 (stereo not given) | 105 | 111
CCCn1c2ccccc2c2cnn(CC(=O)N3CCN(c4ccccc4F)CC3)c(=O)c21 | 107 | 106
O=C(NCc1ccccc1Cl)C1CCN(C(=O)N2CCOc3ccccc32)CC1 | 110 | 104
Cc1oc2ncn(CC(C)C)c(=O)c2c1C(=O)NCCc1ccccc1 | 105 | 111
COCCNC(=O)CSc1nc2cc3c(cc2c(=O)n1CCCC(=O)NCCc1ccc(OC)c(OC)c1)OCO3 | 106 | 110
O=C(Nc1ccc2oc(-c3ccc4ccccc4c3)nc2c1)c1cc(Br)ccc1Cl | 100 | 104
COc1ccc(Cc2nc3ccccc3n2Cc2ccccc2C)cc1 | 104 | 105
CCCn1cc(S(=O)(=O)c2cccc(Cl)c2)c(=O)c2cc(F)c(N3CCCC3)cc21 | 109 | 108
CC(C)Oc1ccc(CNC(=O)c2cnc3sc(N4CCCCCC4)nn3c2=O)cc1 | 108 | 109
CC1CCN(S(=O)(=O)c2ccc3c(c2)c(=O)c(C(=O)NCc2ccc(Cl)cc2)cn3C)CC1 | 101 | 106
O=C(CN1C(=O)C(c2ccc(F)cc2)=NC12CCCCCC2)Nc1ccccc1Cl | 108 | 106
Cc1cccc(Cn2c(SCc3ccc(C(=O)NC4CCCC4)cc3)nc3ccncc32)c1 | 105 | 108

Source: PubChem BioAssay
